High-throughput results deposited in PubChem by National Center for Advancing Translational Sciences (NCATS).
VDR inh: blocks the human vitamin D receptor. Potency, µM, for the others: max response, negative = inhibition, hits mostly inhibitors. 400,000 tested, 0.93% active. P11473. VDR-SRC2-3 peptide fluorescence polarization, 2 h; active = well fitted inhibition curve with a large enough effect; inconclusive = small, poorly fitted or top-dose-only effect, or another doubt; inactive = no such curve, though single readings can be large or run the other way; also: series mostly up to about 120 µM
Target sequence (P11473 whole entry, looked up): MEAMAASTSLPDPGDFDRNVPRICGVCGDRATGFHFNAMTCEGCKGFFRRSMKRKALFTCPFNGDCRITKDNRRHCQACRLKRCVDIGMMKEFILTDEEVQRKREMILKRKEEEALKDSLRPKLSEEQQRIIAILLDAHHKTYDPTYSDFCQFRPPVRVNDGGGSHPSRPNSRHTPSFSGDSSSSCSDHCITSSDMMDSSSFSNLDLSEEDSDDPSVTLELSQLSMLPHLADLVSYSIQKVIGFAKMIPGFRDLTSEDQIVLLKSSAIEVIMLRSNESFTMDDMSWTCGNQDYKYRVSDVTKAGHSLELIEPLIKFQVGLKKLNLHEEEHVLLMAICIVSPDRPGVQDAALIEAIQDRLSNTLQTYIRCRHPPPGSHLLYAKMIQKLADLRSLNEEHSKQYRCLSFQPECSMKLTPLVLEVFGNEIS
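Fluorescence polarization assay of small-molecule disruption of VDR binding to coregulator peptide SRC2-3. Compounds and controls pin-transferred, then read after 2 h incubation at ambient room temperature.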
Numbers without * were called inactive; ? = inconclusive; & = joins results of further samples; [ ] = remark or other dose. % is scaled to controls: 0 for no effect and ±100 for the full control effect; potency is read from the fitted curve at half-maximal effect. The list is partial; the hit share may differ from the screen's.

VDR inh	Molecule
-15.2%	CC1(C)CC2CC(C)(CN2/C=C2/CCCCC2=O)C1 (configuration not stated)
-9.8%	CCCCn1c(SCC(N)=O)nc2ccc(N3CCOCC3)cc2c1=O
2.5%	CC(C)CCn1c(S(=O)(=O)O)nc2ccccc21
6.3%	COc1ccc(CNC(=O)Cn2c(=O)nc(-c3ccccc3)c3ccccc32)cc1OC
-10.2%	Cc1cc2c(cc1S(=O)(=O)Nc1c(C)cccc1C)n(C)c(=O)c(=O)n2C
-6.6%&9.5%	Cc1nc2nc(SCC(=O)O)nn2c(C)c1Cc1c(F)cccc1Cl
0.0%	COCCN1C(=O)c2oc3ccccc3c(=O)c2C1c1cccc(O)c1 (configuration not stated)
-8.2%	Cc1cccc(NC(=O)NCCc2c[nH]c3ccccc23)c1
1.5%	CCN1CCC2(CC1)C(C#N)=C(N)Oc1c2sc2nc(C)cc(C)c12
-19.6%	CCCc1[nH]nc2c1C(/C(C)=C/c1ccccc1)C(C#N)=C(N)O2 (configuration not stated)
-7.8%	CC(=O)N1C(=O)C(=C2C=C(C)OC(C)=C2)c2ccccc21
4.7%	CC(C)n1nccc1NS(=O)(=O)c1ccccc1
0.0%	CCOc1cc(C(=S)N2CCCC2)ccc1OCC(=O)Nc1c(C)cc(C)cc1C
11.5%	CCCn1c(=C(C#N)C#N)s/c(=C2\C=Cc3ccccc3N2CC)c1=O
-4.4%	Fc1ccc(NC(=S)N2CCc3[nH]c4ccccc4c3C2)cc1
2.4%&3.2%	CCc1ccc(NC(=O)C2CCCN(S(=O)(=O)c3ccc4[nH]c(=O)ccc4c3)C2)cc1 (configuration not stated)
-0.5%	CCOC(=O)C1(Cc2cccc(Cl)c2)CCCN(C(=O)c2ccnn2C)C1 (configuration not stated)
12.5%	C[C@]12CCC3c4ccc(OC(=O)c5ccccc5)cc4CCC3C1CCC2=O (some centres not stated)
-11.5%	Cn1ccnc1C(OC(=O)c1ccccc1)C(F)(F)F (configuration not stated)
-4.2%	O=C(NCc1ccc(Cl)cc1)C(=O)NCC(c1cccnc1)N1CCN(c2ccccc2)CC1 (configuration not stated)
9.1%	Cn1c(=O)n(C)c2cc(NS(=O)(=O)c3ccc(Cl)s3)ccc21
4.0%	O=C(Nc1ccc(F)c(Cl)c1)C1CCCN(c2ncnc3onc(-c4ccc(F)cc4)c23)C1 (configuration not stated)
?	COc1ccc(-c2cn(-c3ccc(C)cc3)c(S(=O)(=O)CC(=O)Nc3ccc(F)cc3)n2)cc1
6.3%	CCc1ccccc1NC(=O)CCCN1C(=O)C2CC=CCC2C1=O (configuration not stated)
-6.5%	O=C(NCCCc1ccccc1)c1cccc(NC(=O)C2CCC2)c1
-7.6%	CN1CCN(CCCNC(=O)c2ccc3c(c2)N(Cc2ccccc2)CCS3)CC1
17.8%	O=C(NCCc1ccccc1)c1c[nH]c2ccc(F)cc2c1=O
-3.6%	CSc1ncc(C(=O)Nc2cc(Cl)ccc2C)c(-c2ccccc2)n1
-24.5%	O=C(CCc1ccc(S(=O)(=O)NCc2ccccc2)cc1)NCC1CCCO1 (configuration not stated)
-2.5%	Clc1ccc2nc(CN3CCCCCC3)cn2c1
-3.6%	CCN(CC)P(=O)(Nc1cccc(C(F)(F)F)c1)c1ccc(N(C)C)cc1NC(=O)c1ccco1 (configuration not stated)
-16.2%	COc1ccc2nc(-c3ccccc3)cc(C(=O)N3CCC3)c2c1
5.1%	CCc1nn(CC(=O)N2CCN(c3cccc(Cl)c3)CC2)c(=O)c2cc3sccc3n12
-10.3%	C=CCNC(=O)N1C2=NC(C(=O)OC)=C(C(=O)OC)[C@@H]3N(Cc4ccccc4)c4ccccc4[C@]23C[C@H]1C(=O)OC
-8.0%	CCOc1ccc(NC(=O)CN(C)CC(=O)Nc2ccc(Br)cc2F)cc1OCC
-15.7%	NNc1cccc(C=Cc2ccccc2)cc1=O
?	O=C(CSc1ccccn1)N1CCN(c2cccc(Cl)c2)CC1
-1.3%	O=C(NCCCN1CCOCC1)c1ccc2ccccc2c1
-18.6%	CC(=NCCc1ccccc1)C1=C(O)COC1=O
-17.1%	CC(=O)c1c(C)[nH]c(C(=O)OCC(=O)Nc2cc(S(=O)(=O)N3CCCCC3)ccc2C)c1C

Given with each value named: part of the list above.
molecule: CCc1nn(CC(=O)N2CCN(c3cccc(Cl)c3)CC2)c(=O)c2cc3sccc3n12
  VDR inh: 5.1%

molecule: O=C(NCCCN1CCOCC1)c1ccc2ccccc2c1
  VDR inh: -1.3%

molecule: CC(=NCCc1ccccc1)C1=C(O)COC1=O
  VDR inh: -18.6%

molecule: COc1ccc2nc(-c3ccccc3)cc(C(=O)N3CCC3)c2c1
  VDR inh: -16.2%

Remaining list, next part.
VDR inh	Molecule
-19.7%	NS(=O)(=O)c1ccc(NC(=O)c2cccc3ccccc23)cc1
-0.5%	CCCOc1ccccc1C1NC(=O)NC(C)=C1C(=O)OCc1ccccc1 (configuration not stated)
10.2%	COc1ccc(NC(=O)c2sc(-c3ccccc3)nc2C)c(OC)c1
-21.5%	O=C(NCc1ccccn1)c1cc(-c2ccc(Cl)cc2)oc1C(F)(F)F
-1.7%	Cc1ccc2nc(NC(=O)c3ccc(-c4nc5ccccc5s4)s3)sc2c1
10.2%	COCCNC(=O)c1ccccc1-c1ccccc1C(=O)O
2.6%	COC1CCCN(C(=O)c2ccc(OC3CCN(S(=O)(=O)N(C)C)CC3)cc2)C1 (configuration not stated)
8.1%	COc1ccc(CNC(=O)Nc2ccc(OC)cc2)cc1
-23.4%	O=C(Nc1ccccc1F)Nc1ccc([N+](=O)[O-])cc1Cl
11.3%	O=C(CCNC(=O)C1CCN(S(=O)(=O)c2ccccc2)CC1)NCc1ccc(Cl)c(Cl)c1
-10.9%	COc1ccc(-n2c(=O)c3sc4ccccc4c3n(CC(=O)NC3CCCCC3)c2=O)cc1
-5.2%	COCCNC(C(=O)Nc1ccc(C)cc1[N+](=O)[O-])c1ccccc1 (configuration not stated)
-3.6%	CN1C(=O)C(C)(C)c2cc(S(=O)(=O)NCC3CCC(C(=O)NC4CCCCC4)CC3)ccc21 (configuration not stated)
-14.4%	CCCOc1ccc(N2C(=O)CC(N(CCc3ccc(OC)c(OC)c3)C(=O)c3ccccc3)C2=O)cc1 (configuration not stated)
13.3%	CCc1cccc(C)c1NC(=O)c1cc(S(=O)(=O)N(C)Cc2ccccc2)ccc1F
-11.6%	O=C(NCCc1ccccc1)c1cccc(Br)n1
4.7%	Cc1ccc(C(C(=O)NC(C)(C)C)N(Cc2cccs2)C(=O)c2csnn2)cc1 (configuration not stated)
43.8%[activator]	Cc1onc(-c2ccccc2)c1C(=O)N1CCCc2ccccc21
-12.2%	CC(Oc1ccc2oc3ccccc3c2c1)C(=O)NC12CC3CC(CC(C3)C1)C2 (configuration not stated)
5.5%	CCOc1ccc(NC(=O)c2ccc(-n3cccn3)nc2)cc1
-4.7%	COc1ccc(-c2csc(C3=C(O)CN(C(C)C)C3=N)n2)cc1OC
-24.4%	Cc1cc(C(=O)O)cc(S(=O)(=O)Nc2ccccc2C(=O)NC2CC2)c1C
-26.3%	Cc1ccc(NC(=O)NNC(=O)c2cccs2)cc1
-4.3%	Cc1ccc(CNCc2cccnc2)s1
3.6%	CN1CCN(NC(=O)c2cccc3ccccc23)CC1
-0.7%	CC(=O)c1ccc(NC(=S)NC(=O)Cc2ccc(Cl)cc2)cc1
2.5%	O=C(O)CCSSCCC(=O)O
10.7%	CC(C)C[C@H](NC(=O)[C@H](Cc1ccccc1)n1c(=O)[nH]c2ccccc2c1=O)C(=O)N1CCC[C@@H]1C(=O)O
-7.9%	COc1cccc([C@H]2Nc3ccc(S(=O)(=O)Nc4cc(C)ccc4C)cc3[C@H]3C=CC[C@H]32)c1
50.1µM*	COc1cc(/C=C(/C(=O)c2cccs2)c2nc3ccccc3[nH]2)cc(OC)c1O
-1.7%	Cn1nc(C(F)(F)F)c(C(=O)Nc2ccc(F)cc2F)c1Sc1cccc(Cl)c1
-4.1%	Cn1c(N)c(C(=O)COC(=O)CCC2CCCC2)c(=O)n(C)c1=O
-0.1%	COCCCNC(=S)NNC(=O)c1ccccn1
2.4%	S=C(NCCCCc1ccccc1)NCc1ccccc1
4.8%	COC(=O)c1c(SC)nc2ccccc2c1OCc1cc(C)ccc1C
6.4%	COC(=O)c1ccc(NC(=O)CSc2ccccn2)cc1
-15.0%	Cc1ccc(-c2nc3n(n2)C(=O)CC(c2ccc(C)cc2)S3)cc1 (configuration not stated)
-5.7%	CCOc1ccc(NC(=S)N2CCN(S(=O)(=O)c3ccc(C)cc3)CC2)cc1
-9.4%	COc1ccc(N(CC(=O)N/N=C/c2ccco2)S(=O)(=O)c2ccccc2)cc1
2.6%	COc1cccc(C(=O)Nc2cccc(-c3nc4ncccn4c3C)c2)c1
3.9%	CCC(Sc1nccn1C)C(=O)Nc1cccc2ccccc12 (configuration not stated)
-3.8%	Cc1cc(Nc2ccc(C(C)C)cc2)n2ncnc2n1
-11.4%	Cc1noc(C)c1-c1nc(NC2CC2)c2ccccc2n1
2.6%	CCCCn1cnc(C(=O)OCC)c1N
4.8%	CCN(CC)CCCN(Cc1cc2cc3c(cc2[nH]c1=O)OCO3)C(=S)NC
3.8%	COc1cccc(Oc2nc(-c3ccccc3O)nc3ccccc23)c1
-24.7%	C[C@H](CO)N1C[C@H](C)[C@@H](CN(C)S(=O)(=O)c2cccs2)Oc2ccc(NS(=O)(=O)c3cn(C)cn3)cc2C1=O
11.7%	CCN(Cc1ccc2c(c1)OCCO2)S(=O)(=O)c1ccc(NC(C)=O)cc1
-19.7%	Cc1ccsc1/C=N\NC(=O)c1cc(C(C)(C)C)[nH]n1
11.2%	O=C(c1ccccc1)c1cc2ccccc2o1

Going on with the list.
VDR inh	Molecule
-3.3%	CCc1ccc(-c2cn3c(n2)sc2cc(C(=O)NC4CCCCC4)ccc23)cc1
7.2%	Cc1ccc(-c2nc3cc(Cl)ccc3o2)cc1NC(=O)COc1ccc(F)cc1
-6.4%	CCCCCC/C=C/c1ccc([C@H]2[C@H]3C=CC[C@@H](C)[C@@H]3C(=O)N2Cc2ccccc2)c(F)c1
3.8%	Cc1nn(C)c(C(=O)N/N=C/c2ccccn2)c1[N+](=O)[O-]
9.6%	CCc1nnc(NC(=O)CCC(=O)N2CCN(c3cccc(Cl)c3)CC2)s1
25.4%	COc1ccccc1CN1CC(C(=O)NCc2cccnc2)CC1=O (configuration not stated)
-6.2%	CCc1ccc(NS(=O)(=O)c2ccc3oc(=O)c4ncn(CC)c4c3c2)cc1
-10.4%	N#Cc1ccc(OCC(=O)N2CCN(C(=O)c3ccco3)CC2)cc1
-17.9%	Cc1csc(NC(=O)c2ccccc2)n1
-7.7%	Cc1ccc(C(=O)NCCCN2CCOCC2)cc1Cl
-3.0%	CCc1ccc(CN(Cc2ccco2)c2cnc(S(C)(=O)=O)nc2C(=O)Nc2c(C)cccc2C)cc1
-11.9%	COCCn1c(-c2ccc(Cl)cc2Cl)nc2c(c(=O)c3ccccc3n2C)c1=O
3.4%	CN1CCN(c2nc3ccccn3c(=O)c2C=O)CC1
-13.8%	CCOC(=O)C1C(=O)NC(SC)=C(C#N)C1c1ccccc1F (configuration not stated)
-21.8%	Cn1cnnc1Sc1ccc(C(=O)OCC(=O)NCC(F)(F)F)cc1[N+](=O)[O-]
?	CCOc1ccc2nc(NC(=O)CSC3=NCCS3)sc2c1
-0.5%	Cc1ccc(S(=O)(=O)N2CCOCC2)cc1C(=O)OCC(=O)Nc1ccc2c(c1)OCO2
-6.8%	CSc1ccccc1NC(=O)CSc1n[nH]c(N)n1
-2.6%	Cn1c(=O)c2c(nc(CN3CCC(C(N)=O)CC3)n2Cc2ccccc2Cl)n(C)c1=O
-16.0%	O=C(NCc1ccc(F)cc1)C1CCC(=O)N1CCc1ccccc1 (configuration not stated)

Grouped by structure: the compounds so far with bromine
VDR inh	Molecule
-8.0%	CCOc1ccc(NC(=O)CN(C)CC(=O)Nc2ccc(Br)cc2F)cc1OCC
-11.6%	O=C(NCCc1ccccc1)c1cccc(Br)n1

Additional records follow:
VDR inh	Molecule
1.1%	Cc1cccc(OCCCCCn2ccnc2)c1
-8.8%	Cc1nc(NCC2CCCO2)c2oc3ccccc3c2n1 (configuration not stated)
-5.4%	Cc1cc(C)n(CC2CC(=O)N(c3ccc(C)c(Cl)c3)C2=O)n1 (configuration not stated)
-11.6%	CCN=c1scc(C)n1/N=C/c1ccc(O)c(O)c1O
12.1%	CCc1ccc(NS(=O)(=O)c2cc(-c3cnc(C4CC4)o3)ccc2C)cc1
2.7%	CCNC(=S)NNC(=O)c1cc(-c2cccc(C)c2)nc2ccccc12
-13.7%	O=C(O)C1CCCN1C(=O)OCC1c2ccccc2-c2ccccc21 (configuration not stated)
19.5%	CC(C)(C)S(=O)(=O)c1ccccc1C(=O)O
-1.5%	Cc1ccc(S(=O)(=O)N[C@H](C(=O)N2CCC(C(=O)N3CCC[C@H]3C(=O)O)CC2)C(C)C)cc1
-6.4%	CCOC(=O)c1cn2nc(N3CCCC3)ccc2n1

Two entries drawn at random from those above, as already listed:
VDR inh	Molecule
-6.6%&9.5%	Cc1nc2nc(SCC(=O)O)nn2c(C)c1Cc1c(F)cccc1Cl
-0.5%	CCOC(=O)C1(Cc2cccc(Cl)c2)CCCN(C(=O)c2ccnn2C)C1 (configuration not stated)

New compounds follow.
VDR inh	Molecule
-6.2%	Cc1ccc(OCC(O)CN2CCN(c3ccccn3)CC2)c(C)c1 (configuration not stated)
6.6%	CC1=CCC2C(=O)N(c3cccc(C(=O)NCc4ccccc4)c3)C(=O)C2C1 (configuration not stated)
-9.4%	COc1cccc2cc(C(C)N(CCCN3CCOCC3)C(=O)Nc3ccccc3)oc12 (configuration not stated)
-6.4%	Cc1nc2ccccc2c2oc(C(=O)N3CCN(C4CCCCC4)CC3)cc12
-15.8%	CCOC(=O)C1CCCN(S(=O)(=O)c2ccc3c(c2)CCN3C(=O)CC)C1 (configuration not stated)
-8.1%	CN(C)/C=C1\C=C(c2ccccc2)OC1=O
0.7%	CC(=O)c1c(C)[nH]c(C(=O)OCC(=O)NCc2cccs2)c1C
